# Compound activity deposited in PubChem by National Center for Advancing Translational Sciences (NCATS).
# VDR inhibitor = Inhibitors of the vitamin D receptor (VDR): qHTS; Vitamin D3 receptor (Homo sapiens), P11473; VDR-SRC2-3 peptide fluorescence polarization, 2 h; Potency, µM, for inactives: max response, negative = inhibition, actives largely listed as inhibitors; 0.93% of 400,000 active; AID 504847, 2011; active = well fitted inhibition curve with a large enough effect; inconclusive = small, poorly fitted or top-dose-only effect, or another doubt; inactive = no such curve, though single readings can be large or run the other way; also: series mostly up to about 120 µM
# Target sequence (P11473 whole entry, looked up): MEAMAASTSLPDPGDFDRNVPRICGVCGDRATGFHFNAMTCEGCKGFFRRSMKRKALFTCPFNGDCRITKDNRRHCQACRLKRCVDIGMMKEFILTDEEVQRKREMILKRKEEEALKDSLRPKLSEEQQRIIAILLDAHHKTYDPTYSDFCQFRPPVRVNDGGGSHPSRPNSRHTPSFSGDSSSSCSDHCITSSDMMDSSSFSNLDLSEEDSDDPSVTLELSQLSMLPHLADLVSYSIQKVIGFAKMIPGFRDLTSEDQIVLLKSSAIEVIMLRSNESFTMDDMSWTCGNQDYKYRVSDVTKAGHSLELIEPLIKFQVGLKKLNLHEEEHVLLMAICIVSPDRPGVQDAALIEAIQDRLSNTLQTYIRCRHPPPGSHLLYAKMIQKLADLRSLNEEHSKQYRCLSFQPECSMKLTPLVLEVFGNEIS
#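 Reagent solutions, kept cold and dark, are dispensed first; compounds are then pinned in at 23 nl, plates briefly spun, and incubated 2 h at ambient temperature. Inhibition of VDR–SRC2-3 peptide binding is read by fluorescence polarization.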
# * = called active by the depositor; ? = inconclusive. % is scaled to controls: 0 for no effect and ±100 for the full control effect; potency is read from the fitted curve at half-maximal effect.
# The opening three compounds (preview)
molecule,VDR inhibitor
CCOC(=O)c1c(C)n(-c2ccccc2)c2ccc(OC(=O)c3cccc(C)c3)cc12,-9%
Cc1ccc(Cc2nc3ccccc3nc2SCC(=O)N2CCCCC2C)cc1 (centres undefined),1%
CCc1c(O)nc(SCC(=O)Nc2ccc(Br)cc2)n(-c2ccc(C)cc2)c1=O,?

# The list itself, from the start:
molecule,VDR inhibitor
CCOC(=O)c1c(C)n(-c2ccccc2)c2ccc(OC(=O)c3cccc(C)c3)cc12,-9%
Cc1ccc(Cc2nc3ccccc3nc2SCC(=O)N2CCCCC2C)cc1 (centres undefined),1%
CCc1c(O)nc(SCC(=O)Nc2ccc(Br)cc2)n(-c2ccc(C)cc2)c1=O,?
Cc1csc(SCC(=O)NCCc2ccc(Cl)cc2Cl)n1,-8%
COc1ccc(CNC(=O)C2CCN(S(C)(=O)=O)CC2)cc1,?
COc1ccc(-n2c(C)c(C(C)=O)c3cc(OC(=O)c4ccc(C)cc4)ccc32)cc1,-29%
O=C(CSc1c(Cl)cccc1Cl)N1CCC(c2nc3ccccc3s2)CC1,24%
O=[N+]([O-])c1ccc(S(=O)(=O)NCC2COc3ccccc3O2)cc1 (centres undefined),-3%
CN(C)S(=O)(=O)c1ccc(C(=O)OCC(=O)NC(=O)NCc2ccccc2)cc1,-3%
COc1ccccc1NC(=O)N1CCN(c2nnc(C)c3c(C)n(-c4ccc(Cl)cc4)nc23)CC1,8%
CC1(C)Cc2c(c(-c3ccco3)[nH]c(=O)c2C#N)CS1,-11%
CCOC(=O)c1c(CS(=O)(=O)c2ccccc2)n(C)c2cc(Br)c(O)cc12,0%
Cc1ccccc1Cn1c2ccccc2c2cnn(CC(=O)NC3CCCCCC3)c(=O)c21,1%
COCC(=O)N(C)[C@H]1C[C@H]2c3cc(Oc4ccccc4C)ccc3CCN2C(=O)[C@H]1[C@H](C)O,-27%
COc1ccccc1NC(=S)NNC(=O)c1cc(C)n(C)n1,-2%
O=C(c1ccccc1)C1CCN(C(=O)c2c(F)cccc2F)CC1,-2%
OCCN1CCN(CC(O)COCc2ccc3c(c2)OCO3)CC1 (centres undefined),-5%
CC(=O)c1cccc(NC(=O)Cn2c(=O)c(CNc3ccc(C)cc3)cc3cc4c(cc32)OCCO4)c1,1%
Fc1ccc(Br)cc1C1C=C(c2ccc(Br)cc2)Nc2nnnn21 (centres undefined),2%
O=C(c1cc2ccccc2oc1=O)N(Cc1cccs1)Cc1ccccc1Cl,-2%

# 4 records picked at random from those above, as already listed:
molecule,VDR inhibitor
CC1(C)Cc2c(c(-c3ccco3)[nH]c(=O)c2C#N)CS1,-11%
Fc1ccc(Br)cc1C1C=C(c2ccc(Br)cc2)Nc2nnnn21 (centres undefined),2%
O=[N+]([O-])c1ccc(S(=O)(=O)NCC2COc3ccccc3O2)cc1 (centres undefined),-3%
CCOC(=O)c1c(CS(=O)(=O)c2ccccc2)n(C)c2cc(Br)c(O)cc12,0%

# (further entries)
molecule,VDR inhibitor
COc1ccc(N=C2c3ccccc3-c3ccc([N+](=O)[O-])cc32)cc1,9%
CC[C@H](C)[C@H](NC(N)=O)C(=O)NCCc1ccc(OC)cc1,2%
CC1CCC2(CC1)NC(=O)N(CC(=O)NCc1ccc(Cl)cc1)C2=O (centres undefined),-12%
O=c1c(S(=O)(=O)c2ccccc2)cn(Cc2ccc(F)cc2)c2cc(N3CCCCC3)c(F)cc12,12%
C=CCOc1ccc(CNn2nnnc2N)cc1,8%
O=C(CSc1nnc(CNC(=O)c2c(F)cccc2Cl)o1)NC1CCCCC1,-1%
NS(=O)(=O)c1ccc(NC(=S)NC2CCCCC2)cc1,?
CC(C)(C)C(=O)NCCCNc1ccc([N+](=O)[O-])cc1,-4%
FC(F)(F)c1nc(N2CCCC2)ncc1-c1nnnn1-c1ccccc1,-7%
COc1cccc(C(=O)NCC(=O)OCc2cc(=O)n3nc(C)sc3n2)c1,8%
Cc1ccc(-c2ccccc2[C@@H]2C[C@H]3CN(C)C(=O)[C@]34CCCN24)o1,10%
C/C(=N/OCO/N=C(\C)c1ccc(F)cc1F)c1ccc(F)cc1F,3%
COc1ccc(OC)c(S(=O)(=O)N(C)CC(=O)Nc2ccccc2OC)c1,-1%
CC[C@H](C)[C@@H](NC(=O)O[C@H]1C(=O)c2cc(OC)ccc2O[C@@H]1c1ccc(OC)c(Br)c1)C(=O)OC,-1%
CN1N=C2c3ccccc3CCC2C1c1ccc(F)cc1 (centres undefined),-5%
Cc1ccc(C)c(N2CCN(S(=O)(=O)c3ccc4[nH]c5c(c4c3)CCCCC5)CC2)c1,0%
COc1ccc(OC)c(NC(=O)c2ccc3c(c2)C(=O)N(CC2CCCO2)C3=O)c1 (centres undefined),-9%
COc1ccc(CN(CC(=O)NCCC(C)C)C(=O)CCC(=O)Nc2nccs2)cc1,-6%
Brc1ccc(-n2nc(-c3ccccc3)c3cnc4cc5c(cc4c32)OCO5)cc1,-18%
Fc1cccc(NC(=S)N2CCn3cccc3C2c2cccnc2)c1 (centres undefined),-9%
CC1=CC(C)(C)NC(=S)N1c1ccccc1,-18%
CC[C@@]1(c2ccccc2OC)C(=O)N(C(=O)OC)N1C(=O)OC,24%
CCCn1c(C)cc(C(=O)COc2ncnc3sccc23)c1C,6%
CCCCOc1ccc(N(CC(=O)NCC2CCCO2)C(=O)CCC(=O)Nc2nccs2)cc1 (centres undefined),23%
CCCNC(=S)Nc1ccc(Nc2ccccc2)cc1,-2%
Cc1ccc2oc(C(=O)Nc3ccc(S(=O)(=O)N4CCCC(C)C4)cc3)cc(=O)c2c1 (centres undefined),10%
CCNC(=S)N(CCN(CC)CC)Cc1cc2cc3c(cc2[nH]c1=O)OCO3,-10%
CCc1ccc(NC(=S)Nc2cc(C(=O)O)ccc2N2CC3CC(C2)c2cccc(=O)n2C3)cc1 (centres undefined),?
CN(CC(=O)Nc1cccc(F)c1)C(=O)CCCc1cccs1,-1%
Cc1ccc(Nc2nc(N)nc(CN3CCc4ccccc4C3)n2)cc1,3%
c1ccc(-c2nn3cnnc3c3ccccc23)cc1,-22%
CC1CN(CC(=O)NCc2ccc(Cl)cc2)CC(C)O1 (centres undefined),3%
CON(C)C(=O)CC1(CN(Cc2ccccc2)C(=O)OC(C)(C)C)CCCCC1,?
CCNS(=O)(=O)c1cccc(C(=O)c2c(C)cc3ccccn23)c1,3%
O=C(NCCN1CCOCC1)c1ccc2c(c1)N(Cc1ccc(F)cc1)C(=O)c1ccccc1S2(=O)=O,-18%
CCn1c(SCC(=O)Nc2ccc(C)cc2)nc2sc3c(c2c1=O)CCN(C)C3,-14%
O=C(Cn1cc(C(=O)C(F)(F)F)c2ccccc21)Nc1ccccc1F,5%
COc1ccc(C(=O)N/N=C/c2ccccc2OC(=O)c2ccccc2)cc1,-6%
COc1cc(Nc2nc(SCc3ccccc3F)nc3ccccc23)cc(OC)c1,12%
CCOC(=O)N1CCN(S(=O)(=O)c2ccc(F)c(C(=O)Nc3cccc(C)c3C)c2)CC1,-10%
Cc1ccc(-n2nc(C)c(C(=O)N3CCN(C(=O)c4ccco4)CC3)c2-n2cccc2)cc1,3%
CC1CCC(C(C)(C)O)CC2=C1CCC2C (centres undefined),-1%
O=C(CCCN1C(=O)C(c2ccccc2)Oc2cccnc21)NCCc1ccc(Cl)cc1 (centres undefined),-3%
Cc1cnc(C(=O)OCC(=O)c2ccc(C3CCCCC3)cc2)cn1,0%
CC(C)(C)C(=O)NC(=S)NNC(=O)C(c1ccccc1)c1ccccc1,11%
O=C(NCCCO)c1c(O)c2cccc3c2n(c1=O)CCC3,-10%
O=C(CSc1nc(O)cc(=O)n1-c1ccccc1)Nc1nc2ccccc2s1,-15%
CN(C(=O)c1cc(COc2ccc(F)c(F)c2)on1)C1CCOC1 (centres undefined),-18%
COc1ccc(CNC(=O)CN(c2ccc(C(C)C)cc2)S(=O)(=O)c2c(C)nn(C)c2C)cc1,-15%
Cc1nn(C)c(C)c1/C=C(/C(=O)C(C)(C)C)n1cncn1,-3%
O=C(CSc1nnc(-c2ccccc2)o1)N1CCOCC1,-1%
CC1(C)O[C@@H]2[C@H](O1)[C@@H](CO)O[C@H]2n1ccc(=O)[nH]c1=O,1%
COc1ccc(OC)c(NC(=O)C(CCS(C)(=O)=O)NC(C)=O)c1 (centres undefined),8%
CC(C)c1ccc(N2C(=O)[C@@H]3Cc4ccccc4CN3C2=O)cc1,5%
N/C(=N\S(=O)(=O)c1ccc(Cl)cc1)N1CCOCC1,15%
COc1ccccc1N1CCN(C(=O)CCc2nnc3ccc(N4CCCC4)nn23)CC1,-6%
CCOC(=O)COc1ccccc1C1Nc2ccccc2C(=O)N1c1cccc(Cl)c1 (centres undefined),0%
CS(=O)(=O)N1CCC2(CC1)CN(C(=O)Nc1cccc(C#N)c1)C2,4%
O=C(NCc1ccco1)c1ccccc1,-11%
Cc1ccc(S(=O)(=O)Nc2cccc(C(=O)N3CCOCC3)c2)c(C)c1NS(C)(=O)=O,-3%

# (cont.)
molecule,VDR inhibitor
COc1ccc(CC(=O)NCCc2sc(-c3ccc(Cl)cc3)nc2C)cc1OC,6%
O=C(CCSc1nnc2ccc3ccccc3n12)Nc1ccc(F)cc1,0%
CCC(=O)N1CCc2cc(Br)cc(S(=O)(=O)N3CCN(c4cc(C)ccc4C)CC3)c21,-15%
CCOC(=O)c1c(Nc2ccccc2N)cc(C)nc1C,4%
CCn1nc(C(=O)Nc2ccc(S(=O)(=O)Nc3nccs3)cc2)c2ccccc2c1=O,-6%
Cc1cc(C)nc(Oc2ccc(Br)cc2Br)n1,-10%
O=C(c1ccc2snnc2c1)N1CCN(c2ccccn2)CC1,-16%
Cc1ccnc(NCc2ccc(Cl)cc2)c1,-2%
COc1cc(NC(=O)Cn2nc(C(F)(F)F)c3c2CCCC3)c(OC)cc1Cl,-21%
O=C(N/N=C/c1ccc(Cl)cc1Cl)c1ccncc1,9%
Cc1ccccc1NC(=O)CSc1nnc2ccc(-c3ccccn3)nn12,13%
O=C1C=C(c2ccc(F)cc2OCc2ccccc2)C[C@@H](c2ccc(Cl)cc2)C1,6%
CC(C)(C)S(=O)(=O)N1Cc2cc(CO)cc(CCO)c2[C@H]1CCO,9%
CCOC(=O)c1c(C)[nH]c(C)c1C(=O)COC(=O)c1cccs1,2%
Cc1ccc(-c2nc(CS(=O)CC(=O)N3CCN(c4ncccn4)CC3)c(C)o2)cc1 (centres undefined),-8%
CCOC(=O)c1c(CSC(=N)N)n(-c2ccc(Br)cc2)c2cc(Br)c(OC(C)=O)cc12,-5%
O=C1CC(c2ccccc2)C(=O)N2C(=O)CC(c3ccccc3)C(=O)N12 (centres undefined),-8%
Cc1c(Cl)cccc1NC(=O)Cn1cnc2nc3c(cc2c1=O)CCCC3,4%
O=C(CSc1ccc(-c2nc3ccccc3[nH]2)cn1)Nc1ccc(S(=O)(=O)N2CCCC2)cc1,?
O=C(/C=C/c1ccco1)N/C(=C\c1ccccc1)C(=O)NCCc1nc2ccccc2[nH]1,10%
CC(C)CSc1nnc(-c2ccccc2)c(-c2ccccc2)n1,4%
CCOC(=O)NC1C=CS(=O)(=O)C1 (centres undefined),20%
Cc1ccc(C(=O)Nc2scc(-c3ccccc3)c2C(=O)O)o1,-10%
CC(=O)Nc1nonc1NC(=O)c1ccc(C(C)(C)C)cc1,-16%
CC1(C)Cc2c(cnn2-c2ccc(F)cc2)C(NC(=O)c2ccco2)C1 (centres undefined),-19%
Cn1c(=O)c2c(nc(Oc3ccc4c(c3)OCO4)n2Cc2ccc(Cl)cc2)n(C)c1=O,8%
C=CCN1C(=O)/C(=C\c2ccc(Cl)cc2)N=C1SCC(=O)NC1CCCCC1,11%
CCS(=O)(=O)Nc1ccc(-c2cc(-c3ccccc3)c3cc(C)ccc3n2)cc1,-2%
CCOc1ccc(NC(=O)c2c(NC(=O)c3ccccc3Br)sc3c2CCC(C)C3)cc1 (centres undefined),40µM*
CC(=O)Nc1ccc(NC(=O)C(C)NC(C)c2cccc3ccccc23)cc1 (centres undefined),1%
COc1ccc(NC(=O)CSc2nc3[nH]c(=O)cc(O)c3s2)c(OC)c1,-9%
Cc1ccc(OCC(=O)N(Cc2ccc(N(C)C)cc2)C2CCS(=O)(=O)C2)cc1C (centres undefined),28%
COCCNc1nc(N)c([N+](=O)[O-])c(NC2CCCCC2)n1,-8%
CN(C)C(=O)c1ccc(-c2cncnc2NCCc2cnc[nH]2)cc1,0%
COc1ccc(CN2C(=O)c3cccnc3C2=O)cc1S(=O)(=O)NC1CCCCC1C (centres undefined),-4%
CCOC(=O)c1sc(/N=C/C2=C(O)CC(C)(C)CC2=O)c(C(=O)OCC)c1C,-13%
CCCNC(=O)c1c(Cl)cnn1-c1ccc(C)cc1,22%
CC(=O)OCC[C@H](NS(=O)(=O)OCC(Cl)(Cl)Cl)c1ccccc1,-26%
CCc1sc(C(=O)Nc2cc(S(=O)(=O)N3CCOCC3)ccc2OC)cc1C,0%
Cc1cnc(C(=O)OCC(=O)N2CCc3ccccc32)cn1,1%
NC1=NC[C@@H](Cc2ccc(O)cc2)N1CCC12CC3CC(CC(C3)C1)C2,-13%
c1ccc(-c2nn[nH]n2)c(Nc2cccc3c2CCCC3)c1,40µM*
C/C(=N/NS(C)(=O)=O)c1ccc2ccccc2c1,5%
Cc1c(Cl)cccc1NC(=O)[C@@H](NC(=O)c1ccccc1Cl)C(C)C,-16%

# Not all compounds are listed. The share of hits here may be higher or lower than overall.
